NPYLR7 ag: mosquito NPYLR7 agonism | HEK293T NPYLR7/Galpha15, GCaMP6s calcium fluorescence | activation, % at 10 µM | 0.15% of 270,000 active | AID 1259423; in the data active means activation above about 40%;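 further: 0% = vehicle and 100% = reference agonist at the receptor; some compounds past the cut are filed as inactive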
NPYLR7 ag max-min: second read-out of NPYLR7 ag, no call of its own (marks repeat the call); activation, %; measured here: Max-Min RFU normalised activation; some inactives read as strong as hits;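 span of the calcium signal over five minutes; 0% = vehicle and 100% = native peptide agonist; compound fluorescence can raise it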
Numbers without * were called inactive; & = joins results of further samples. An excerpt (hit frequency here may not be typical).

Molecule	NPYLR7 ag	NPYLR7 ag max-min
COc1ccc2c(c1)CCCN2Cc1nnnn1-c1ccccc1	-5	-5
COc1cc(/C=C/C(=O)N(C)Cc2ccsc2)cc(OC)c1OC	-2	-3
N#CC1C(=N)SC(=N)C(C#N)C1c1ccc(F)cc1F (stereo unspecified)	0	2
Cc1ccccc1OCC(=O)N=Nc1c(O)n(CN2CCOCC2)c2ccccc12	-11	-16
O=C1c2nc(-c3cccnc3)ccc2CN1C1(C(=O)NCc2ccccc2F)CC1	14	27
COc1ccccc1C(CC(=O)N1CCC2(CC1)OCCO2)c1cn(C)c2ccccc12 (stereo unspecified)	1	4
COc1cccc(CN(CC(O)COCC(C)C)CC2CC(c3ccc(F)cc3)=NO2)c1 (stereo unspecified)	-3	-1
CC1CN(S(=O)(=O)N2CCCCC2C)CC(C)O1 (stereo unspecified)	6	4
C=C(C)Cn1c(=O)c2c(nc3n(-c4ccc(F)cc4)c(C)c(C)n23)n(C)c1=O	-1	-3
N=C1/C(=C/c2cccs2)C(=O)N=C2SC(COc3ccccc3)=NN12	-2	-3
Cc1c([N+](=O)[O-])c([N+](=O)[O-])nn1CC(=O)Nc1ccc(Cl)cc1Cl	0	-11
Cc1cc(NC(=O)c2noc(C(C)C)c2[N+](=O)[O-])no1	10	8
CCNC(=O)N(Cc1ccc(Cl)c(Cl)c1)C(C)C	-1	-3
CC(c1ccon1)N(C)C(=O)c1cc(COc2cccc3cccnc23)on1 (stereo unspecified)	-5	-5
COc1ccc(Nc2ncnc3c2nnn3C)cc1	11	4
COc1cccc(-c2nnc(-c3cc4cc(Cl)ccc4oc3=O)o2)c1	-4	-10
Cc1cc(CNC(=O)C2(C)CC(=O)N=C3C=CC=CN32)ccc1F (stereo unspecified)	-24	-26
Cc1nnc(SCC(=O)NC(=O)NCCC(C)C)n1C	-14	-13
Cc1nc(C)c(Cc2ccccc2F)c(N2CCN(C(=O)/C=C/c3ccccc3)CC2)n1	2	12
CC1=CC(=O)OC1Cc1ccc2ccccc2n1 (stereo unspecified)	4	4
COCCN(Cc1cccs1)C(=O)c1cccc(-n2cnnc2)c1	-4	-7
COc1cccc(-c2csc3nc(CN(CCN4CCOCC4)CC(O)COC(C)C)[nH]c(=O)c23)c1 (stereo unspecified)	-8	-6
COCCCNC(=O)c1cc(-c2ccc(OC)cc2)n2nc(C)c(-c3ccccc3)c2n1	2	12
O=C(NC(C(=O)N1CCOCC1)C1CCN(C(=O)CCc2ccccc2)CC1)c1cccs1 (stereo unspecified)	-3	20
CCCCN(CC(=O)N(Cc1ccco1)Cc1cccn1C)C(=O)c1cccc([N+](=O)[O-])c1	-15	-7
Cc1ccccc1C(=O)Nc1ccc(N2CCC(C)CC2)c(C(=O)NCCc2ccccc2)c1	0	5
COCCN(CCC(=O)N1CCN(c2ccccc2F)CC1)c1nc(-c2ccccc2)nc2ccccc12	-1	7
NC(=O)Cn1nc(-c2ccc(Cl)cc2)ccc1=O	5	-1
COc1cc(Cn2ccnc2C2CCN(C)CC2)cc(OC)c1OC	17	12
CC1CC(C)CN(C(=O)C2CCN(S(=O)(=O)c3ccc4c(c3)OCCO4)CC2)C1 (stereo unspecified)	10	10
CCCC(O)(CCC)c1ccc(CN(CCCOC)Cc2ccsc2)o1	-6	4
O=C(CCc1nnc(CCc2c[nH]c3ccccc23)o1)N1CCc2ccccc2C1	7&-3	4&-4
O=C(NCC1CCCO1)c1cccnc1N1CCN(C(=O)c2cccc(Cl)c2)CC1 (stereo unspecified)	23	11
CCOC(=O)c1ccc(S(=O)(=O)Nc2cc(-c3ccc(F)cc3)sc2C(=O)OCC)cc1	-1	-1
CCCn1nc(C)c(-c2cc(C(=O)O)[nH]n2)c1C	-5	-5
CC1CCC(C)(NC(=O)NC2CC2)CC1 (stereo unspecified)	1	6
OC(C#CCC(O)c1ccccc1)c1ccccc1 (stereo unspecified)	5	3
NC1(C(=O)O)CCN(Cc2ccnn2-c2ccccc2)C1 (stereo unspecified)	5	-1
CC(C)c1nc(CNC(=O)CCc2nnc(C3(c4ccc(Cl)cc4)CCC3)o2)cs1	14	2
FC(F)Oc1cccc(CN2CCC(OCc3cccnc3)CC2)c1	-6	-14
N#CCCN(C(=O)/C=C/c1ccc(OCC#N)cc1)c1ccccc1	-15	-17
c1ccc(-c2nc(CSc3n[nH]c4nc5ccccc5n34)cs2)cc1	-5	-6
COc1cc(NC(=O)C=C(C)C)c(Cl)cc1C(=O)O	11	10
CC1CCCCC1NC(=O)CN(c1ccccc1)S(=O)(=O)c1ccc(C#N)cc1 (stereo unspecified)	-6	-5
COc1ccc(Nc2c([N+](=O)[O-])cc(C(F)(F)F)cc2[N+](=O)[O-])cc1	-7	-10
O=C(Cc1cccs1)NNC(=O)c1ccc(=O)n(Cc2ccc(Cl)cc2)c1	-11	-16
CCC(C)n1c(C)cn2c3c(=O)n(CCc4ccccc4)c(=O)n(C)c3nc12 (stereo unspecified)	3	6
CC(C)C(NS(=O)(=O)c1cccc(Cl)c1)C(=O)NC1CC1 (stereo unspecified)	2	7
Cc1nnc(SCC(=O)N2CCN(Cc3c(F)cccc3Cl)CC2)s1	-1	-5
CC(=O)Cn1c(=O)n(C)c(=O)n(C)c1=O	2	-7
CCn1nc(C)c(CN2CCC(C(=O)Nc3cccc(-c4cccc(F)c4)c3)CC2)c1C	8	1
COC(=O)C1CCN(C(=O)C(=O)c2c(C)n(C)c3ccccc23)CC1	-1	-1
CCC(C)NC(=O)CSc1nnnn1-c1ccccc1 (stereo unspecified)	-3	-10
CS(=O)(=O)N1CCN(Cc2cc3nc(-c4cccc5[nH]ncc45)nc(N4CCOCC4)c3s2)CC1	-9	-15
COc1ccc(NC(=O)c2cn[nH]c2-c2ccc3c(c2)OCCO3)cc1	4	0
Cc1cccnc1CN1CCN(Cc2ccc(-c3ccn[nH]3)s2)CC1	-2	-2
O=C(Nc1nnc(-c2ccc(F)cc2)s1)C1CCCN1S(=O)(=O)c1ccc(Br)cc1 (stereo unspecified)	14	4
Fc1cccc(F)c1C=Nc1ccc2c(c1)OCCO2	7	5
COc1ccc(OC)c(-c2ccc(=O)n(CCNC(=O)Nc3ccc(F)c(Cl)c3)n2)c1	-7	0
O=C(CSc1nc(=O)n2ccccc2n1)N1CCCc2ccccc21	-1	-2

(continued)
Molecule,NPYLR7 ag,NPYLR7 ag max-min
COc1ccc(-c2cc(C(=O)N(CC(=O)NN3CCOCC3)Cc3ccccc3)no2)cc1,6,3
CCCCc1ccc(C(=O)Nc2cccc(C3SCC(=O)N3c3ccc(OCC)cc3)c2)cc1 (stereo unspecified),5,12
Cc1cccc(Cn2c(SC(C)C)nc3c2c(=O)n(C)c(=O)n3C)c1,-3,-3
Cc1ccc(-c2nnc(Nc3ccc(OCC(N)=O)cc3)c3ccccc23)cc1S(N)(=O)=O,-17,-21
OCc1ccc(-c2cccc3ccnn23)cc1,8,2
CN(CC(F)(F)F)S(=O)(=O)c1ccc(C(=O)O)cc1,1,1
CCc1nc2ccc(C(=O)NCCCN3CCCC3=O)cn2c1N(CC)CC(=O)N(C)C,14,11
CC(C)C(C(=O)Nc1ccc2cn(C(C)C)nc2c1)N1CCCC1=O (stereo unspecified),0&-5,-3&-5

Compound profiles, as listed above.
`Fc1cccc(F)c1C=Nc1ccc2c(c1)OCCO2` is listed with NPYLR7 ag = 7; NPYLR7 ag max-min = 5
`OCc1ccc(-c2cccc3ccnn23)cc1` is listed with NPYLR7 ag = 8; NPYLR7 ag max-min = 2

Some of these compounds in order of SMILES length, descending:
Molecule,NPYLR7 ag,NPYLR7 ag max-min
Cc1ccc(-c2nnc(Nc3ccc(OCC(N)=O)cc3)c3ccccc23)cc1S(N)(=O)=O,-17,-21
CC(C)C(C(=O)Nc1ccc2cn(C(C)C)nc2c1)N1CCCC1=O (stereo unspecified),0&-5,-3&-5
OCc1ccc(-c2cccc3ccnn23)cc1,8,2

The results go on:
Molecule,NPYLR7 ag,NPYLR7 ag max-min
c1cnc(NCC2(c3ccc4c(c3)OCCO4)CCCC2)nc1,-1,0
Cc1cc(C)n(CCCN(C)Cc2cc3n(n2)CCNC3)n1,2,1
COCCCNc1nc2c(c(=O)[nH]c(=O)n2C)n1Cc1ccccc1,-6,-8
CCCc1nc2nc(C)c([N+](=O)[O-])c(=O)n2[nH]1,9,5
CCOC(=O)C1C2C=CC3(CN(CC(C)C)C(=O)C13)O2 (stereo unspecified),-1,-2
COc1ccc([N+](=O)[O-])cc1N1C(=O)C2C3C=CC(C4CC34)C2C1=O (stereo unspecified),-9,-15
COc1cccc(N2C(=O)NC(=O)/C(=C\c3ccc(N(C)C)c([N+](=O)[O-])c3)C2=O)c1,-24,-29
CCCc1nc(C)sc1C(=O)NCc1ccccc1C,-9,-16
COc1ccc(CN(C)C(=O)c2cnc(-c3ccccc3)nc2)cc1,4,2
CC(C)C[C@@H](NC(=O)[C@@]1(O)C[C@@H](O)[C@H](O)[C@@H](NC(=O)CS(=O)(=O)c2ccccc2)C1)C(N)=O,-9,-16
Cc1ccc(CN(Cc2ccc3c(c2)OCO3)CC(C)O)o1 (stereo unspecified),-4,7
Oc1[nH]c2ccccc2c1N=Nc1ccc(F)c(Cl)c1,-2,-8
Cc1oc(-c2cccc(F)c2)nc1CN1CCCCC1CCn1cccn1 (stereo unspecified),5,6
C=CCOC1OC(COC(C)=O)C(OC(C)=O)C(OC(C)=O)C1NC(C)=O (stereo unspecified),-9,-12
Cc1oc(C)c(C(=O)NCCN2CCN(c3ccc(C(F)(F)F)cn3)CC2)c1C,11,9
CCn1c(-c2cccs2)n[nH]c1=S,4,2
CCCCN(CC#Cc1ccccc1)C(=O)c1occc1C,-4,-5
CCn1cc(NC(=O)Nc2ccc(OC)cc2)c2ccccc21,14,6
CC(=O)C1(O)CCC2C3CC(C)C4=CC(=O)C=CC4(C)C3(F)C(O)CC21C (stereo unspecified),0,-6
O=C(N1[C@@H]2CC[C@H]1CC(O)C2)C1(Oc2ccc(Cl)cc2)CCNCC1 (stereo partly specified),14,11
Cc1c(-c2nccn2Cc2ccccc2Cl)c(=O)n(-c2ccccc2)n1C,2,-1
COc1ccc(OC)c(-c2csc(NC(=O)CCN3C(=O)NC4(CCCC4)C3=O)n2)c1,-2,-2
Cc1nnc(C(C)OC(=O)C2(C#N)CCCCC2)o1 (stereo unspecified),1&8,-3&8
CCSc1nc(N2CCOCC2)c2cnn(CCNC(=O)c3ccc(F)cc3)c2n1,0,0
COCCc1noc(CN2CCC(N3CCCC3=O)CC2)n1,5,1
O=c1c2cnc3nc(-c4cccnc4)nn3c2ccn1Cc1ccccc1,1,2
Cc1ccc2c(c1)CCCN2CC(=O)N(CCC(N)=O)c1ccccc1,100*,93*
CN1CCN(c2nc(CSc3ccccn3)cc(=O)[nH]2)CC1,3,1
CC(C)Oc1ccc(C(=O)Nc2ccnn2C2CCCCC2)cc1,-18,-24
Cc1nnc2ccc(C(=O)NC3C(C)CCCC3C)cn12 (stereo unspecified),3,3
CC(=O)Cn1c(=O)c2c(nc3n(C(C)c4ccccc4)c(C)cn23)n(C)c1=O (stereo unspecified),14,5
Cc1ccccc1C1CCCN1C(=O)NCc1ccnn1C (stereo unspecified),4,3

Brought forward from above: 3 entries, then new ones.
Molecule,NPYLR7 ag,NPYLR7 ag max-min
Cc1nnc2ccc(C(=O)NC3C(C)CCCC3C)cn12 (stereo unspecified),3,3
CC(=O)Cn1c(=O)c2c(nc3n(C(C)c4ccccc4)c(C)cn23)n(C)c1=O (stereo unspecified),14,5
Cc1ccccc1C1CCCN1C(=O)NCc1ccnn1C (stereo unspecified),4,3
COc1cccc(CN(Cc2nc(C(=O)NC3CC3)co2)CC2CC2)c1,2,13
CC(NC(=O)c1ccccc1COc1ccccc1)c1ccccn1 (stereo unspecified),-1,2
O=C(CCl)Nc1cc([N+](=O)[O-])ccc1Nc1ccc(F)cc1,-6,-9
Cc1ccc2c(C)c(C(=O)N(C)CC3COCCO3)oc2c1 (stereo unspecified),14,10
Cc1nn(CC(=O)c2cc(C)n(C3CC3)c2C)c(N)c1C#N,4,2
Cn1nnnc1SCCNC1CCC2(CCNCC2)CC1,-2,-12
CCc1[nH]n(C)c(=O)c1C1=C(N(C)Cc2ccccc2)C(=O)N(C2CCCCC2)C1=O,22,15
Cc1cccc2c(C(=O)N(Cc3cccnc3)C(C)C)cc(-c3cncnc3)nc12,-1,-2
COc1cc(C=NN2CCN(Cc3ccccc3Cl)CC2)cc(OC)c1O,-1,-4
CCCn1c2c(c(=N)c3ccccc31)CCC2,-10,-14
CCOC(=O)C1=C(C)NC(C)=C(C(=O)OCC)C1c1cccs1,-17,-19
COc1ccc(NC(=O)c2ccc(CN3CCNC(=O)C3)cc2)c(OC)n1,4,3
COc1ccccc1CCNC(=O)C(C1CCCC1)N1CCN(C(=O)c2ccc(C(F)(F)F)cc2)CC1 (stereo unspecified),-10,-9
Cc1ccccc1CO[C@]1(C(=O)NCCN2CCOCC2)CC(OCc2c(F)cccc2F)[C@@H]2OC(C)(C)O[C@@H]2C1 (stereo partly specified),23,18

Compound activity deposited in PubChem BioAssay by Fisher Drug Discovery Resource Center.
